# Screening data: PubChem, National Center for Advancing Translational Sciences (NCATS)
# 2A StopGo = FMDV 2A StopGo reporter, luciferase signal. hit rate 1.2% among 410,000. AID 1159524. Potency, µM (series often up to 57.9 µM), inactives show at the top dose signal change, negative = less light. human cells with a luciferase reporter of 2A StopGo recoding; control for the full effect not named in the record; active = well fitted falling curve with a large enough effect; inconclusive = small, poorly fitted or top-dose-only effect; inactive = no such curve, though single readings can be large or run the other way; tested in HEK293T cells; note: % is set by controls: 0 for no effect and ±100 for the full control effect; nearly all actives have a fitted effect of over 45% in size; luciferase light after 4 h
# SARS PLP yeast = SARS-CoV PLP inhibition in yeast. S. cerevisiae expressing SARS-CoV PLpro, growth rescue; control for the full effect not named in the record. Potency, µM (highest dose often 32.9 µM), without a hit: at the highest dose activity, positive = growth rescue. hit rate 0.19% among 330,000. AID 485353; active means well fitted rising curve with a large enough effect; inconclusive means small, poorly fitted or top-dose-only effect; inactive means no such curve, though single readings can be large or run the other way; note: 0% is about no effect; nearly all actives have a fitted effect of over 55% in size; growth read by luminescence after 48 h
# MARV entry inh = Marburg virus entry inhibition. Marburg virus pseudotyped entry inhibition, cell reporter; control for the full effect not named in the record; about a third of the inactives were read at about 46 µM. Potency, µM (highest dose often 37.8 µM), without a hit: at the highest dose activity change, negative = inhibition, usual class: inhibitors. hit rate 1.8% among 300,000. AID 540276; active = well fitted inhibition curve with a large enough effect; inconclusive = small, poorly fitted or top-dose-only effect, or effect the other way; inactive = flat fitted curve, though single readings scatter; tested in HEK293 cells; about a fifth of its hits are not listed in these tables; note: % is set by controls: 0 for no effect and ±100 for the full control effect; luciferase read-out
# Lassa entry inh = blocks Lassa virus binding to or entry into cells; Lassa virus pseudotype entry inhibition, cell reporter; control for the full effect not named in the record; Potency, µM (doses to about 37.9 µM), for inactives: top-dose activity change, negative = inhibition, hits mostly inhibitors; hit rate 1.2% among 300,000; AID 540256; active means well fitted inhibition curve with a large enough effect; inconclusive means small, poorly fitted or top-dose-only effect, or effect the other way; inactive means flat fitted curve, though single readings scatter; tested in HEK293 cells; note: % is set by controls: 0 for no effect and ±100 for the full control effect; nearly all actives have a fitted effect of over 50% in size; luciferase read-out
# Cruzain inh noDet = blocks cruzain activity in detergent-free assay. purified cruzain, Z-FR-AMC fluorescence, no detergent. P25779. AID 1476. hit rate 2.3% among 200,000. Potency, µM, without a hit: max response, negative = inhibition, usual class: inhibitors;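 note: plate controls were enzyme without inhibitor for no effect and buffer without enzyme for full effect; nearly all actives have a fitted effect of over 40% in size; top concentration of the series not given in the record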
# Target sequence (P25779 123-467 limits assumed): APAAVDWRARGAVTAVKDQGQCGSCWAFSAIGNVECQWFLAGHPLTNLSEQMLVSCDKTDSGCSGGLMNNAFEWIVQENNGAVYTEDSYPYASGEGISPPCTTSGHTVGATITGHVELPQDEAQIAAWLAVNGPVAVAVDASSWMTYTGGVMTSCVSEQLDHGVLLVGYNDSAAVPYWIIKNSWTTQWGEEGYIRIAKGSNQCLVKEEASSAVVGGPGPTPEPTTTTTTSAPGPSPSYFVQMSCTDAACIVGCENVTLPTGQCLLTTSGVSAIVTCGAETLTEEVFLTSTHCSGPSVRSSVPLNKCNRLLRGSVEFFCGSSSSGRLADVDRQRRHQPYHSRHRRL
#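 Detergent-free condition (0.00005% Triton X-100) in acetate buffer pH 5.5 with DTT. 1.5 nM enzyme and compound were pre-mixed 15 min, then 2 uM Z-FR-AMC substrate added; reaction progress from fluorescence change between first and third reads (60 s).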
# Cruzain Triton = cruzain (T. cruzi) inhibition with detergent; Potency, µM, for the others: max response, negative = inhibition, hits mostly inhibitors; P25779; purified cruzain, Z-FR-AMC fluorescence, 0.01% Triton; hit rate 0.43% among 200,000;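 note: plate controls were neutral wells for no effect and buffer without enzyme for full effect; nearly all actives have a fitted effect of over 40% in size; top concentration of the series not given in the record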
#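 Detergent-containing run (0.01% Triton X-100) in acetate buffer pH 5.5 with 5 mM DTT: enzyme at 1.5 nM final, 15 min compound preincubation at room temperature, then 2 uM Z-FR-AMC substrate. Activity taken as 60 s fluorescence increase at 360/450 nm.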
# RE007 growth inh = less growth of the S. pombe RE007 Vpr strain; hit rate 0.21% among 360,000; AID 651644; Potency, µM (series often up to 92.2 µM), for inactives: at the highest dose activity change, negative = less growth; S. pombe RE007 Vpr strain, BacTiter-Glo ATP luminescence, 24 h; control for the full effect not named in the record; active = well fitted falling curve with a large enough effect; inconclusive = small, poorly fitted or top-dose-only effect; inactive = no such curve, though single readings can be large or run the other way;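 note: % is set by controls: 0 for no effect and ±100 for the full control effect; nearly all actives have a fitted effect of over 50% in size; the assay follows cell death caused by Vpr and the record does not say whether a fall means rescue or toxicity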
#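 Fission yeast strain RE007, carrying one chromosomally integrated HIV-1 vpr copy, was seeded at OD 0.01 in PMG+AL medium with 23 nL pinned compound. After 24 h at 30 °C and 99% humidity, viability was read by BacTiter-Glo luminescence.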
# NS1 inh = influenza NS1 inhibition; S. cerevisiae slowed by influenza A NS1, growth recovery by OD600; Potency, µM (highest dose often 46.1 µM), for inactives: top-dose activity, positive = more growth; hit rate 0.4% among 270,000; active means well fitted rising curve with a large enough effect; inconclusive means small, poorly fitted or top-dose-only effect; inactive means no such curve, though single readings can be large or run the other way; note: nearly all actives have a fitted effect of over 50% in size
#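 A cell-based growth assay was used: compounds that relieve NS1-induced slow growth of budding yeast raise OD600. Assay medium was yeast nitrogen base with ammonium sulphate and -URA supplement, pH 6.0, with 2% galactose.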
# An asterisk follows results filed as active; ? = inconclusive; . = not tested or not shown; & = joins results of further samples; [ ] = another dose, or the depositor's remark. Unless noted, calls come from the whole dose curve; as a rule, active = well fitted curve in the direction sought with a large enough effect; inconclusive = small, poorly fitted or top-dose-only effect, or another doubt; inactive = no such curve, though single readings can be large; an effect the other way counts as inactive or inconclusive. Potency is the fitted concentration of half-maximal effect. Compounds as they come. Share with any hit: about 4.7%.
Structure,2A StopGo,SARS PLP yeast,MARV entry inh,Lassa entry inh,Cruzain inh noDet,Cruzain Triton,RE007 growth inh,NS1 inh
Cc1ccc(S(=O)(=O)Nc2cccc(-c3ccc(N4CCCCC4)nn3)c2)s1,20%,.,.,-12%[46.1 µM],?,-4.1%,.,.
COc1ccc(C)cc1NC(=O)C(NC(=O)c1cc(OC)c(OC)c(OC)c1)C(C)C (stereo not given),5%,0%,-9%[14.2 µM],-5%,.,.,-6%,.
Cn1c2ccc(F)cc2c2ncn(CC3CCCO3)c(=O)c21 (stereo not given),19%,0%,.,.,.,.,7%,-3%
CCOC(=O)c1ccc(NC(=O)CC2C(=O)N(c3cccc(OC)c3)C(=O)N2CCOC)cc1 (stereo not given),-19%,0%,13%&13%,-19%,?,-4.2%,-5%,-16%
O=C(NCCCN1CCOCC1)c1ccc(N2CCOCC2)c([N+](=O)[O-])c1,-29%,0%,-15%,2%,.,.,-6%,7%
CCOC(=O)C(Cc1c[nH]c2cc([N+](=O)[O-])ccc12)(NC(C)=O)C(=O)OCC,-13%,.,-6%[46.1 µM],-29%[46.1 µM],.,.,0%,.
Cc1nnsc1C(=O)Nc1cccc(Cl)c1C,2%,0%,0%[46.1 µM],8%[46.1 µM],.,.,-8%,.
COC(=O)c1cc(=O)n(Cc2ccc(OC)c(OC)c2)c(=Nc2ccc(F)cc2)s1,13µM*,4%,-7%,.,?,-1.7%,3%,3%
CC1CCCN(S(=O)(=O)c2ccc(NC(=O)C3CC(=O)N(c4ccccc4)C3)cc2)C1 (stereo not given),-16%,7%,?,.,.,.,9%,6%
CS(=O)(=O)c1ccc2nc(NC(=O)CN3CCOCC3)sc2c1,6%,3%,6%[46.1 µM],44%[46.1 µM],.,.,9%,9%
O=C(NC1CC1)C1CCN(C2CCN(C(=O)Cc3ccc(F)cc3)CC2)CC1,-2%,-2%,10%[46.1 µM],3%[46.1 µM],.,.,-3%,-5%
CCOC(=O)C1(Cc2ccc(OC)cc2)CCN(C(=O)C2CC(=O)N(C3CC3)C2)CC1 (stereo not given),-4%,1%,9%[46.1 µM],5%[46.1 µM],.,.,-17%,-2%
CSc1ccc(C(=O)C2CCCN(C(=O)c3csc(C(C)=O)c3)C2)cc1 (stereo not given),-18%,0%,13%[46.1 µM],.,.,.,5%,5%
CCC(=O)N1CC(=O)Nc2ccc(F)cc2C1c1ccccc1 (stereo not given),-10%,-2%,.,.,-2%,-2.0%,-8%,-11%
CCOc1ncccc1C(=O)N1CCN(C(=O)c2ccccc2)CC1,-5%,2%,?,9%,.,.,23%,.
COc1cc(OC)cc(-c2cc3nc(C)c(CCC(=O)Nc4ccc(F)c(Cl)c4)c(C)n3n2)c1,32µM*,.,?,-21%[46.1 µM],10%,1.9%,.,.
Cc1c(NC(=O)CN(c2ccccc2)S(=O)(=O)c2ccc(F)cc2)c(=O)n(-c2ccccc2)n1C,?,.,-26%,2%,.,.,-10%,8%
O=C(NCc1nc(-c2ccccc2)no1)c1ccc(Br)o1,.,?,1%,3%,4%,-0.5%,-2%,-103%
COc1ccc(/C=N/NC(=O)c2nnn(-c3nonc3N)c2-c2cccs2)c(OC)c1,-5%,-1%,10%[46.1 µM],11%[46.1 µM],.,.,-13%,-6%
COc1cccc(N(CC(=O)NCCN2CCOCC2)S(=O)(=O)c2ccccc2)c1,-15%,5%,16%,-6%,.,.,-16%,.
COc1ccccc1C(=O)NC1CCSc2ccccc21 (stereo not given),13%,0%,-17%[46.1 µM],-4%[46.1 µM],.,.,-10%,-10%
O=C(CN1C(=O)C2(SCC(=O)N2c2ccccc2)c2ccccc21)NCc1ccccc1 (stereo not given),-9%,.,.,17%[46.1 µM],2%,-2.3%,.,.
Cc1ccc(SCCNC(=S)Nc2cc(C)ccc2C)cc1,14%,-19%,-28%,?,-8%,-8.4%,2%,-149%
CN1CCN(c2cc(=O)n(Cc3ccc(F)cc3)c(=O)[nH]2)CC1,-4%,12%,.,.,10%,2.8%,-1%,-2%
COc1ccc(C(=O)COC(=O)c2ccccc2C(=O)N(C)c2ccccc2)c(OC)c1,74%[activator],0%,?,-30%,.,.,25%,.
Clc1ccc(NCc2nnc3n2CCCCC3)cc1,-15%,5%,-8%,3%,-3%,-4.1%,6%,1%
COc1ccc2oc(=O)c(C(=O)n3ccc(C)n3)cc2c1,-1%,11%,16%,-25%[14.3 µM],-1%,-2.6%,6%,-87%
CSc1ccc(CN2CCC(Cc3ccccc3)CC2)cc1,-11%,0%,.,.,.,.,-29%,-29%
Cc1ccc(-c2nnc(OCCN3CCOCC3)c3ccccc23)cc1,-24%,0%,-15%&-15%,7%,11%,5.4%,2%,-12%
COc1ccc(C2CC(c3cccs3)=NN2C(=O)CSc2nc3ccccc3s2)cc1 (stereo not given),-26%,2%,?,-3%,?,-9.7%,-1%,?
Cn1c(=O)c2c(SCC(=O)Nc3ccccc3F)nc(C3CC3)nc2n(C)c1=O,0%,-5%,9%,-1%,.,.,3%,15%
CCc1ccc(OCC(=O)Nc2ccc(S(=O)(=O)Nc3ccccn3)cc2)cc1,14%,3%,13%[46.1 µM],-1%,.,.,4%,7%
CN(C(=O)c1ccc2c(c1)N(Cc1ccc(F)cc1)C(=O)c1ccccc1S2(=O)=O)C1CCCCC1,-7%,.,-31%[46.1 µM],3%[46.1 µM],19%,-3.4%,.,.
CCN1/C(=C(\O)c2ccccc2)C(=O)c2ccccc2S1(=O)=O,0%,-12%,?,5%,-12%,-4.0%,40µM*,-139%
O=C(CNS(=O)(=O)c1ccc(Br)s1)N1CCN(c2ccc(F)cc2)CC1,-30%&-5%,-5%,?,?,7%,-2.2%,-6%,9%
COc1c(C)cc(C(=O)C2CCCN(Cc3ccc(Oc4ncccn4)cc3)C2)cc1C (stereo not given),?,0%,.,.,.,.,-5%,-3%
Cc1ccc2nc(-c3cccc(S(=O)(=O)N4CC(C)OC(C)C4)c3)cn2c1 (stereo not given),8%,6%,.,.,.,.,3%,-19%
CCc1ccccc1NC(=O)CCNS(=O)(=O)c1cc(Br)cnc1N,4%,4%,.,.,.,.,-7%,9%
COc1ccc(-c2cc(C(F)(F)F)nc(SCC(=O)NCc3ccc(Cl)cc3)n2)cc1,-12%,.,-4%[46.1 µM],0%[46.1 µM],13%,-0.9%,.,.
CC1CC(C)CN(C(=O)c2cc3c(=O)n4ccccc4nc3s2)C1 (stereo not given),38%[activator],1%,16%[46.1 µM],?,.,.,20%,-5%
O=C(CCN1C(=O)c2ccccc2C1=O)NC(=S)Nc1ccccc1Cl,-6%,-9%,?,?,-6%,-8.8%,-22%,32%
COc1ccc(CC2SC(N)=NC2=O)cc1 (stereo not given),-8%,4%,-2%,-2%,.,.,11%,15%
CCOC(=O)c1cnc2cc(F)c(F)cc2c1N1CCOCC1,-6%,1%,3%[46.1 µM],?,.,.,-13%,-1%
CCOC(=O)N1CCC(N(C(=O)Nc2cccc(OC)c2)C(C)CC)CC1 (stereo not given),14%,5%,-17%,-9%,0%,1.1%,3%,-2%
CCOC(=O)NN1C(=O)c2ccccc2NC1c1cccc(O)c1 (stereo not given),-9%,5%,?,22%,-12%,-2.3%,.,6%
O=C(CCn1[nH]c(=O)c2ccccc2c1=O)N1CCOCC1,-3%,2%,20%,22%,-10%,-0.7%,4%,10%
CCOc1ccc(-c2cn(-c3ccc(OC)cc3)c(SC)n2)cc1,61%[activator],-53%,?,?,2%,-5.8%,1%,?
Cc1nc2c([nH]c3ccccc32)c(=O)n1N,5%,-1%,-6%[46.1 µM],0%,.,.,8%,.
Cc1ccc(-c2nnn(CC(=O)N(CC(=O)NC(C)C)c3cnc4ccccc4c3)n2)o1,.,-12%,-3%,15%,-4%,2.0%,-14%,0%
O=c1cc(-c2cccnc2)oc2c1ccc1ccccc12,-6%,1%,-1%[46.1 µM],-3%,.,.,12%,6%
Cc1cccc(C)c1NC(=S)N1CCOCC1,-13%,0%,-18%,4%,.,.,12%,3%
COc1ccccc1CNC(=O)C(CC(C)C)NS(=O)(=O)c1ccc2c(c1)oc(=O)n2C (stereo not given),-14%&-16%,9%,9%[46.1 µM],6%[46.1 µM],22%&-14%,-2.5%&-1.4%,-4%,4%
COCc1cc(C)nc(SCC(=O)NCC2CCCO2)c1C#N (stereo not given),-3%,-1%,0%[46.1 µM],-2%[46.1 µM],.,.,-7%,-3%
Cc1ccccc1-n1c(N)cc(=O)[nH]c1=S,.,-2%,-12%,-3%,-3%,1.0%,-10%,?
Cc1ccc(C(=O)N2CCN(c3ccc(C(F)(F)F)cn3)CC2)cc1,-22%,2%,-6%[46.1 µM],6%,-2%,-5.4%,2%,1%
Cc1cccc(NC(=S)NN(Cc2ccccc2)c2ccccc2)c1C,-12%,-17%,-4%,-18%,1%,-4.4%,3%,5%
N#Cc1c2n(c3c(=O)n(CC(=O)c4ccc([N+](=O)[O-])cc4)cnc13)CCCCC2,-2%,21%,-4%,-10%,-27%,-5.9%,12%,-22%
CCCc1cc(C(=O)NNC(=S)NCC2CCCO2)cs1 (stereo not given),24%,7%,2%,3%,8%,1.7%,-3%,-3%
CC(C)(C)C(=O)C(Oc1cccc2nonc12)n1cncn1 (stereo not given),.,-8%,17%,17%,6%,-6.8%,0%,-117%
Cc1nc(SCc2nnc(-c3ccc(Cl)cc3)o2)c2c3c(sc2n1)CCC3,.,3%,.,.,3%,-6.0%,.,1%
COC(=O)c1sc(-c2ccccc2)cc1NC(=O)c1ccccc1,-21%,6%,?,15%,-3%,-4.2%,-3%,-14%
COc1ccc(OCC(=O)N2CCN(C(=O)Cc3ccccc3)CC2)cc1,-5%,2%,18%,-5%,-5%,1.9%,-5%,3%
O=C1Nc2ccc(I)cc2/C1=C/c1cc(Br)c(O)c(Br)c1,-19%&-2%,.,?,0%,?,-6.3%&-0.2%,.,-9%
